From PubChem
PINK1 modulator: changes PINK1 expression; Potency, µM (doses to about 76.6 µM), for inactives: at the top dose activation (PINK1 increase), most hits filed as activators; PINK1 immunofluorescence, high-content cytometry, 24 h; 410,000 compounds, 0.2% hits; active = well fitted activation curve with a large enough effect; inconclusive = small, poorly fitted or top-dose-only effect; inactive = flat fitted curve, though single readings scatter; cell line not stated here;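 further: potency means the concentration at half of the fitted maximal effect; % of control where 0% means no effect; nearly all actives have a fitted effect of over 65% in size; a mitochondrial uncoupler was the plate control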
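Fluorescence from anti-PINK1 antibody, together with nuclear and cell stains, was scanned on a laser-scanning cytometer. Before staining, stable-line cells were incubated 24 hours with compounds at 5 concentrations; primary antibody 12 h at 10 degrees C.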
TRPML1 agonist: human mucolipin-1 channel agonism | activation, % (test concentration not listed) | TRPML1-expressing cells, Ca2+ dye fluorescence, FDSS; host cell line not named in the record; reference of the full effect not given here | 410,000 compounds, 0.12% hits | Q9GZU1; in the data active = activation above about 50%; inconclusive = about 30% to 50%; inactive = below about 30%; further: 0% is about no effect; the text of the record puts the active cut at 80%
Target sequence (Q9GZU1 whole entry, looked up): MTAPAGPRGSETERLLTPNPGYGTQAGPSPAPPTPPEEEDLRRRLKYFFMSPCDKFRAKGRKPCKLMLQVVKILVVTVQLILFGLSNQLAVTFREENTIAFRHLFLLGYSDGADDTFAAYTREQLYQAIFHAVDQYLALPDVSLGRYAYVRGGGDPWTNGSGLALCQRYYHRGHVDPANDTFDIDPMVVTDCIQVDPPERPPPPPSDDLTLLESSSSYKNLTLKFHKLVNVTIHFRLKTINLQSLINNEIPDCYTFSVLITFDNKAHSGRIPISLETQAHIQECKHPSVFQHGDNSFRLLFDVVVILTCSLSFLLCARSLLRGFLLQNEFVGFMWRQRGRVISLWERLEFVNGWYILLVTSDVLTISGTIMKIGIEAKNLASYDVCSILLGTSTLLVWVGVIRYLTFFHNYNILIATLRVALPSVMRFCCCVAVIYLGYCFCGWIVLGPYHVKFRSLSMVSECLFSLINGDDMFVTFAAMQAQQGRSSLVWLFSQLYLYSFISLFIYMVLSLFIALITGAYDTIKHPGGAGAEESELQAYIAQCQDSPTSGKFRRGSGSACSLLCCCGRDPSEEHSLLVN
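Agonist activity was taken from a 110 s kinetic Ca2+ dye read on the FDSS after pinning compounds onto TRPML1-DL cells. The cells were seeded at 1,500/well with Tet inducer, incubated about 16 h, then dye-loaded at room temperature.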
Six1-Eya2 inh: blocks human Six1 binding to Eya2. Q15475+O00167. activity change, % (concentration not given with the values). 360,000 compounds, 0.56% hits. AlphaScreen GST-Six1/His-Eya2 binding, biochemical; hits give low values; control for the full effect not named in the record; in the data active = activity change below about -65%; inconclusive = about -30% to -65%; inactive = above about -30%; further: on the % scale 0 is the no-effect control and ±100 the full control effect
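Six1/Eya2 binding was read as AlphaScreen signal after compounds were pinned into GST-Six1 plus His-tagged Eya2 (5X stock 250/500 nM) in pH 8.0 Tris/NaCl/TCEP buffer, beads added, then incubated 1 h, 37 C, dark.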
TRPML1 blocker: inhibitors of human TRPML1 channel. Q9GZU1. 390,000 compounds, 0.02% hits. TRPML1-inducible cells, Ca2+ dye fluorescence, FDSS; hits give low values; inhibition of EC80 agonist-evoked calcium signal. activity change, negative = inhibition, % (test concentration not listed); in the data active means activity change below about -50%; inconclusive means about -30% to -50%; inactive means above about -30%;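 further: stimulus is agonist 54-4 at its EC80 concentration; on the % scale 0 is the no-effect control and ±100 the full control effect; compound concentration not given in the record; the text of the record puts the active cut at -80%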
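Calcium fluorescence in TRPML1-DL cells induced overnight with Tet: a 110 s read after compound pin addition, then a 110 s antagonist read after challenge with 54-4 at 4 uM final (EC80).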
D2 agonist: activates the human D2 dopamine receptor; P14416; DiscoveRx PathHunter D2 beta-arrestin, luminescence, 90 min; 100% = 57 uM dopamine signal; activation, % (test concentration not listed); 360,000 compounds, 0.084% hits; in the data active = activation above about 40%; inconclusive = about 15% to 40%; inactive = below about 15%; further: compound concentration not given in the record; the text of the record calls up to 30% inactive
Target sequence (P14416 whole entry, looked up): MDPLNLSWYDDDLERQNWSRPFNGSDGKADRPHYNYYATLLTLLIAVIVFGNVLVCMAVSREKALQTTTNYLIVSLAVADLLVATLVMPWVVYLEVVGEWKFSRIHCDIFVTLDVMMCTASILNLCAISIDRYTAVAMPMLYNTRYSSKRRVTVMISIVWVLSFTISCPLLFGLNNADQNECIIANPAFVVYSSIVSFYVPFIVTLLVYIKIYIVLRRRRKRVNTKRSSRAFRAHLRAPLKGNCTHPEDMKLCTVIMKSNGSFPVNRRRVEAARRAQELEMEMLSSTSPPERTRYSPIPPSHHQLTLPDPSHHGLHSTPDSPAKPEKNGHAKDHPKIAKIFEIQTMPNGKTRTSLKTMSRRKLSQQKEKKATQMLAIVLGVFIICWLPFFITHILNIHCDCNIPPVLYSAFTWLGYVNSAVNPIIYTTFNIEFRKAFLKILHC
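Agonist mode: compounds alone added to overnight-plated D2 PathHunter cells for 90 min at 37 C, with 57 uM final dopamine (EC100) defining full response. Beta-arrestin recruitment detected by chemiluminescent reagent, read after 1 h at ambient temperature.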
D2 potentiator: potentiates the human D2 dopamine receptor allosterically; 360,000 compounds, 0.23% hits; AID 624464; P14416; DiscoveRx D2 beta-arrestin cells, luminescence, 90 min; 100% = 57 uM dopamine signal; potentiation, % (no concentration beside the values); active = potentiation of 50% or more; inconclusive = 30% to 50%; inactive = 30% or less;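 further: compound concentration not given in the record; tested on top of an EC20 dose of dopamine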
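PathHunter beta-arrestin assay in DiscoveRx D2 cells. Compounds were added with an EC20 of dopamine (50 nM final) for 90 min at 37 deg C. Luminescence was read 1 h after detection reagent, with 57 uM dopamine as the EC100 control.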
Starred values were filed as active, the others as inactive; u = inconclusive; x = no result given; [ ] = another dose, or the depositor's remark.

#	SMILES	PINK1 modulator	TRPML1 agonist	Six1-Eya2 inh	TRPML1 blocker	D2 agonist	D2 potentiator
1	O=C(Oc1ccc(C(=S)N2CCOCC2)cc1)c1cccc(Cl)c1	-0.5%	-0.1	-80.0*	8.6	3.9	-4.0
2	CC(C)(C)NC(=O)C(c1ccc(O)cc1)N(Cc1ccccc1)C(=O)CCC(=O)Nc1nccs1 (stereo unspecified)	-1.3%	-0.3	0.2	2.9	0.5	-0.1
3	Cc1cn2c(=O)cc(COC(=O)c3ccc(NC(=O)C(C)Oc4ccccc4)cc3)nc2s1 (stereo unspecified)	1.0%	1.6	x	-7.0	x	x
4	CC1=C(C(=O)N(C(C)C)C(C)C)CC(CC(=O)NCCN2CCOCC2)C(=O)N1Cc1ccccc1 (stereo unspecified)	0.9%	0.2	-2.5	7.8	-3.3	6.3
5	CCn1c(C(=O)O)c(S(=O)(=O)c2ccc(Cl)cc2)c2ccccc21	-0.8%	0.8	-0.6	-6.9	6.6	8.6
6	CC(C)(C)c1ccc(C(CC(=O)O)NS(=O)(=O)Cc2ccccc2)cc1 (stereo unspecified)	0.1%	x	0.7	x	-3.0	11.1
7	Cc1cc2cc(NC(=O)c3ccco3)ccc2[nH]1	5.9%	0.4	-2.6	-6.0	-3.2	-8.4
8	O=C(c1ccco1)N1CCN(S(=O)(=O)c2ccc(Br)s2)CC1	-0.9%[38.3 µM]	0.3	5.2	-5.0	1.9	-12.9
9	O=C(Nc1nc2ccccc2s1)C1CCN(S(=O)(=O)c2cc([N+](=O)[O-])ccc2Cl)CC1	-0.5%	1.2	-24.6	-15.8	3.7	-7.8
10	COc1cc2c(cc1OC)C(c1cc(OC)c(OC)c(OC)c1)C1(O)C(=O)OCC1(O)C2 (stereo unspecified)	-1.4%	0.5	2.3	3.2	5.9	0.8
11	CCCCCn1c(=N)n(CC(O)COc2cccc(C)c2)c2ccccc21 (stereo unspecified)	-2.2%	1.3	x	9.7	x	x
12	O=S(=O)(c1ccc2c(c1)OCCO2)N1CCN(c2cccc(Cl)c2)CC1	-0.7%	2.2	-10.8	-26.8	-3.6	-10.7
13	CCOc1cc(N2CCOCC2)c(OCC)cc1NC(=O)COC(=O)CCOc1ccc(C(C)(C)C)cc1	1.2%	0.2	-7.8	-13.8	-3.4	-2.7
14	CCOc1ccc(NC(=O)Cn2nc(Cc3cccnc3)c3ccccc3c2=O)cc1	-0.3%	-0.4	x	-10.8	x	x
15	O=C1CSC(c2ccncc2)N1Cc1ccccc1 (stereo unspecified)	-0.1%	-0.2	0.0	1.8	0.4	-5.4
16	O=C(O)CCCC(=O)Nc1cccc(-c2nc3ccccc3[nH]2)c1	-1.8%	-0.3	7.1	-0.6	0.2	7.4
17	CN(Cc1ccccc1)C(=O)c1ccc(NC(=O)c2ccccc2)cc1	-1.2%	1.7	0.6	-23.7	-1.8	-10.6
18	COc1cc(/C=N/NC(=O)c2cc[n+]([O-])cc2)cc(OC)c1OC	-1.4%	0.0	4.9	-0.7	7.4	-0.1
19	Cc1oc(=O)c(NC(=O)c2ccccc2)cc1C(C)O (stereo unspecified)	1.1%	0.9	7.8	-18.3	1.8	-1.8
20	CC(=O)N1CCN(S(=O)(=O)c2ccc(Cl)cc2F)CC1	1.1%	0.8	-4.0	5.4	1.6	-1.4
21	CCOc1ccccc1NC(=O)c1cc(S(=O)(=O)N2CCOCC2)cn1C	-1.5%	0.6	x	33.0	x	x
22	Cc1ccccc1NC(=O)CSc1nc2c(c(=O)n(C)c(=O)n2C)n1Cc1ccccc1F	2.3%	1.6	x	32.9	x	x
23	O=c1c2c(-c3ccccc3)csc2ncn1/N=C/c1c2ccccc2cc2ccccc12	u	1.5	-12.0	-16.0	-4.6	-14.0
24	COc1ccc(CNC(=O)CCCOc2cc(=O)n(C)c3ccccc23)cc1	2.2%	2.7	3.4	-11.4	1.9	-3.2
25	CC(=O)O[C@H]1C(=O)[C@@]2(C)C([C@H](OC(=O)c3ccccc3)[C@]3(O)C[C@H](OC(=O)[C@H](O)[C@@H](NC(=O)c4ccccc4)c4ccccc4)C(C)=C1C3(C)C)[C@]1(OC(C)=O)CO[C@@H]1C[C@H]2O (stereo partly specified)	6.2%	x	-4.3	x	-4.0	-34.7
26	COc1ccc(C(=O)COC(=O)c2ccc(NC(=O)c3ccccc3)cc2)cc1	u	0.4	6.9	3.3	-0.2	1.1
27	COCOCCn1cc(CN2CCS(=O)(=O)N(Cc3ccc(-c4cccc(CO)c4)cc3)C(C)C2=O)nn1 (stereo unspecified)	5.2%	x	-0.7	x	-0.6	x
28	O=C(OCC1CCC=CO1)C1CCC=CO1 (stereo unspecified)	-1.1%	-0.4	9.1	11.1	-1.9	-16.2
29	O=C(Nc1ccc(Br)cc1)C1C2C=CC3(O2)C1C(=O)N(CCN1CCCCC1)C3C(=O)NC1CCCCC1 (stereo unspecified)	1.0%	0.4	-2.6	39.7	-0.4	-6.0
30	CCC(=O)Nc1cccc(-c2nnc(SCC(=O)c3ccccc3)n2C)c1	-1.2%	2.3	-2.4	10.3	-1.8	-20.8
31	CCN(CC)c1ccc(C(=O)NNC(=O)C2CSC3(C)CCC(=O)N23)cc1 (stereo unspecified)	-1.3%	-0.1	-0.6	8.5	2.0	-3.6
32	Cc1ccc(N(C)C(=O)N2CCN(S(=O)(=O)c3ccc4ccccc4c3)CC2)cc1	0.9%[38.3 µM]	0.5	-2.6	-5.5	-2.3	-8.5
33	COc1ccc(C)c2sc(NC(=O)CCS(=O)(=O)c3ccccc3)nc12	-4.0%	-0.4	-23.3	-1.2	2.3	-35.2
34	O=C(O)CC1(CC(=O)Nc2ccc3c(c2)C(=O)OC3)CCCCC1	2.4%	-0.7	-2.1	-7.1	-3.5	-14.8
35	O=C(C1CCCCC1)N(Cc1cccnc1)c1nc2ccc(Cl)cc2s1	26.6%	0.3	x	-13.1	x	x
36	CC[C@H](C)[C@H](NC(N)=O)C(=O)OCC(=O)NCc1ccc(Cl)cc1	1.7%	0.3	-8.5	5.4	13.1	-8.5
37	C=CC[C@H](CC(=O)N(CCO)Cc1ccccc1)C(=O)N[C@H](COC(=O)[C@@H](CC=C)Cc1ccc(F)cc1)C(C)(C)C	23.5%	1.5	-1.6	-1.4	1.0	-5.7
38	Cc1ccc(S(=O)(=O)c2ccc(Oc3ccccc3)cc2)cc1	-1.9%	0.8	51.8	4.5	-1.6	u
39	Nc1ccc2c(c1Br)Cc1ccccc1-2	0.7%	1.3	-27.5	0.8	-2.3	-13.5
40	Cc1ccc(OCCSc2nc3ccc(NC(=O)c4ccco4)cc3s2)cc1	5.0%	-0.8	x	-1.8	x	x
41	COc1cc(/C=C(/C#N)c2nc3ccccc3[nH]2)ccc1OCC(=O)Nc1ccccc1C(C)C	u	1.8	6.3	u	1.5	-0.4
42	CCOC(=O)c1c(C)[nH]c(C(=O)N2CCC(C(=O)OCC)CC2)c1C	-1.1%	6.7	0.0	18.0	-6.9	-6.8
43	Clc1ccccc1Cn1cccc1C1=NC(Cc2ccccc2)CO1 (stereo unspecified)	2.1%	0.7	x	0.0	x	x
44	O=S(=O)(NCC(c1ccco1)N1CCCCC1)c1cccc(C(F)(F)F)c1 (stereo unspecified)	4.3%	2.1	-2.3	7.1	-2.8	-3.1
45	O=c1ccc(N=Nc2ccccc2)ccc1O	u	0.1	u	14.4	1.3	-12.6
46	O=C(Cc1ccc(Cl)cc1)NNC(=O)c1ccco1	-0.4%	1.5	-0.5	42.3	-5.4	-11.0
47	Cc1ccc(C)c(NC2=C(Cl)C(=O)OC2OC(C)C)c1 (stereo unspecified)	0.9%	1.3	8.5	15.8	-7.9	-6.7
48	Cc1ccc(CCC(=O)Nc2ccc(S(N)(=O)=O)cc2)o1	0.0%	0.2	-9.1	-3.4	-1.2	-16.1
49	CC(O)/C=C/c1cccc[n+]1C (stereo unspecified)	x	0.4	7.9	1.0	-2.4	-4.1
50	COc1ccc(Cn2c(=O)oc3ccccc32)cc1OC	-0.5%	-0.8	5.4	-5.3	-4.8	-12.1
51	Cc1ccc(C)c(C(=O)CSc2n[nH]c(-c3ccncc3)n2)c1	0.4%	1.0	-7.8	-11.7	3.4	15.8
52	CC(=O)c1sc(NC(=O)c2ccc(COc3ccccc3Cl)o2)nc1C	u	0.5	25.8	9.3	-4.9	-5.6
53	Cc1ccccc1CC(=O)Nc1ccc2c(c1)CCC2	3.0%	-0.6	1.4	9.0	4.3	-0.6
54	CC(=O)C1=C(O)C(=O)N(Cc2cccnc2)C1c1ccccc1Cl (stereo unspecified)	-1.1%	-0.1	4.4	7.9	-3.9	-4.2
55	COc1ccc(CCNC(=O)C(CC(C)C)N2Cc3ccccc3C2=O)c(OC)c1OC (stereo unspecified)	0.7%	0.5	x	16.0	x	x
56	CCOC(=O)N1CCN(S(=O)(=O)c2cccc3ccc(C)nc23)CC1	13.2%[38.3 µM]	1.2	5.3	-11.6	-1.3	-13.6
57	O=S(=O)(Nc1cccc(-c2ccc(N3CCCC3)nn2)c1)c1ccccc1C(F)(F)F	1.8%	0.9	x	10.1	x	x
58	O=C(CC1C(=O)NCCN1C(=O)Nc1ccc(C(F)(F)F)cc1)Nc1ccc(F)cc1 (stereo unspecified)	6.6%	0.8	6.4	-11.3	-4.0	-14.7
59	CC(C)c1cc(-c2cc(-c3ccc(Cl)cc3)on2)nc(NCC2CC2)n1	8.9%	-0.8	1.3	7.6	-1.6	2.0
60	O=C(NCc1nnc(SCc2ccc(F)cc2)n1-c1ccccc1)C12CC3CC(CC(C3)C1)C2	8.4%	-0.1	0.6	12.3	-0.6	-9.6

Next entries:
#	SMILES	PINK1 modulator	TRPML1 agonist	Six1-Eya2 inh	TRPML1 blocker	D2 agonist	D2 potentiator
61	Cc1cccc(NC(=O)C2CCCCN2S(=O)(=O)c2ccccc2)c1C (stereo unspecified)	0.1%	-1.8	-2.9	33.4	-2.2	-10.0
62	CC(C)NC(=O)C1(C)CCN1CCC(=O)c1ccccc1 (stereo unspecified)	-0.3%	-0.4	6.3	x	u	-4.9
63	Cc1cccc(N(Cc2ccccc2)C(=O)CN2C(=O)NC3(CCCCC3C)C2=O)c1 (stereo unspecified)	0.7%	-0.2	2.3	-4.2	-4.4	-1.6
64	COc1cccc(NCc2nnc(SCC(=O)N(C)C3CCS(=O)(=O)C3)n2C2CCCCC2)c1 (stereo unspecified)	-0.7%	0.1	1.5	-20.9	1.0	5.1
65	COc1ccc(-c2cn3nc(N4CCC(C(=O)Nc5ccc(C)cc5)CC4)sc3n2)cc1	0.0%	1.5	x	-9.9	x	x
66	Cn1ccc2c(-c3cccc(C=O)c3F)cc3c(c21)C1CCC3C1 (stereo unspecified)	1.2%	2.3	-2.0	10.1	-7.0	-9.7
67	CSCCC(NC(=O)c1ccccc1Cl)C(=O)N1CC(C)OC(C)C1 (stereo unspecified)	0.9%	1.5	2.4	-2.8	8.1	-2.3
68	O=C(NC1CCCCC1)c1ccc2ccccc2c1	3.2%	-1.0	-0.5	0.1	-3.1	-20.7
